NPYLR7 ag = mosquito NPYLR7 agonism | HEK293T NPYLR7/Galpha15, GCaMP6s calcium fluorescence | activation, % at 10 µM | actives 0.15% (n = 270,000); in the data active = activation above about 40%;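 also: 0% = vehicle and 100% = reference agonist at the receptor; some compounds past the cut are filed as inactive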
NPYLR7 ag max-min = also measured in NPYLR7 ag; calls as there; activation, %; measured here: Max-Min RFU normalised activation; some inactives read as strong as hits;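 span of the calcium signal over five minutes; 0% = vehicle and 100% = native peptide agonist; compound fluorescence can raise it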
* marks the source's active call; other numbers are inactive results; & = joins results of further samples.

The opening five compounds, to show the layout:
SMILES	NPYLR7 ag	NPYLR7 ag max-min
COc1ccccc1-n1ncc2c(C)nnc(SCC(=O)Nc3ccc(C(N)=O)cc3)c21	-8	-17
C=CCN(Cc1nccn1Cc1ccc(C(F)(F)F)cc1)C(=O)c1cccc(F)c1	23	27
COc1ccccc1-c1cc(C(=O)N2CCC(O)(c3ccccc3)C2)[nH]n1 (configuration not stated)	10	9
CCN(CC(=O)Nc1cc(-c2ccccc2)nn1-c1ccc(Cl)cc1)S(=O)(=O)c1ccc2ccccc2c1	-1	10
CC1(C(=O)Nc2cccc3cccnc23)CCN1Cc1csc2ccccc12 (configuration not stated)	-7	-7

Main list, from the first entry:
SMILES	NPYLR7 ag	NPYLR7 ag max-min
COc1ccccc1-n1ncc2c(C)nnc(SCC(=O)Nc3ccc(C(N)=O)cc3)c21	-8	-17
C=CCN(Cc1nccn1Cc1ccc(C(F)(F)F)cc1)C(=O)c1cccc(F)c1	23	27
COc1ccccc1-c1cc(C(=O)N2CCC(O)(c3ccccc3)C2)[nH]n1 (configuration not stated)	10	9
CCN(CC(=O)Nc1cc(-c2ccccc2)nn1-c1ccc(Cl)cc1)S(=O)(=O)c1ccc2ccccc2c1	-1	10
CC1(C(=O)Nc2cccc3cccnc23)CCN1Cc1csc2ccccc12 (configuration not stated)	-7	-7
CCOC(=O)c1cc(-c2cccc(NC(=O)c3ccc(OC)c(OC)c3)c2)n(-c2cccc(C)c2)n1	6	3
COc1ccc(NC(=O)N2CCN(c3nc(-c4cccc(C)c4)nc(C)c3C)CC2)c(OC)c1	-5	1
Cc1ccc(Cl)c(Oc2cc(Cl)ncn2)c1	10	17
COc1cc(-c2nnc(SC(C)C(=O)c3ccc(Br)cc3)o2)cc(OC)c1OC (configuration not stated)	0	3
CC(C)(C)n1nc2c(c1NC(=O)c1ccc(S(=O)(=O)N3CCCC3)cc1)CSC2	-4	-4
CC(=O)c1ccc(NC(=O)c2cc3cc(Br)ccc3oc2=O)cc1	6	-7
O=C(C1CCC(=O)N(C2CCCCCC2)C1)N1CCN(C2CCCC2)C(=O)C1 (configuration not stated)	2	-2
CCC(O)CN(Cc1c(-c2ccccc2)noc1N1CCCCC1)CC1CC1 (configuration not stated)	2	13
CCOc1ccccc1N1CCN(c2nc(Cc3cccc(OC)c3)ns2)CC1	9	16
CNC(=O)Cc1ccc(NC(=O)C=C2CCC(C)CC2)cc1 (configuration not stated)	-2	-7
CC1(C(=O)O)CCCN1C(=O)c1cccc(C(F)(F)F)c1 (configuration not stated)	-3	-5
O=C1CCC2(CCCO2)CCN1CCCn1cccc1 (configuration not stated)	2	0
Cc1cccc(C)c1N1C(=O)CC(N2CCN(Cc3ccc(Cl)s3)CC2)C1=O (configuration not stated)	0	21
CN(CCCSc1ccccc1)Cc1ccc(C(F)(F)F)nc1	-2	-5
COc1ccccc1N1C(=O)C2C3C=CC(C3)C2C1=O (configuration not stated)	1	-4

Part of the list above in order of formula weight, falling.
SMILES	NPYLR7 ag	NPYLR7 ag max-min
O=C(C1CCC(=O)N(C2CCCCCC2)C1)N1CCN(C2CCCC2)C(=O)C1 (configuration not stated)	2	-2
CN(CCCSc1ccccc1)Cc1ccc(C(F)(F)F)nc1	-2	-5
CC1(C(=O)O)CCCN1C(=O)c1cccc(C(F)(F)F)c1 (configuration not stated)	-3	-5
O=C1CCC2(CCCO2)CCN1CCCn1cccc1 (configuration not stated)	2	0

The listing continues.
SMILES	NPYLR7 ag	NPYLR7 ag max-min
CC(C)C1c2[nH]c3ccccc3c2CCN1C(=O)c1cn(CC2CCCCC2)nn1 (configuration not stated)	4	2
CCc1[nH]c(C(=O)OCC(=O)NC(C)(C)C)c(C)c1C(=O)OC	2	1
Cc1ccc(SCC(=O)N(C)Cc2nc3ccccc3c(=O)[nH]2)cc1C	27	11
COc1cc(/C=N\Nc2nc(Nc3ccccc3)nc(-n3nc(C)cc3C)n2)cc(OC)c1OC	-3	-11
N#Cc1c(-c2ccco2)cc2nc3ccccc3n2c1N	-3	-10
COc1ncccc1-c1ccc(O)c(C(C)=O)c1	-4	-9
COc1ccc(C(=O)Nc2ccc(C3SCC(=O)N3c3ccc(C)c(F)c3)cc2)cc1 (configuration not stated)	4	8
CC(COc1ccc(F)cc1F)NC(=O)CSCc1cccnc1 (configuration not stated)	-4	-5
O=C(Nc1c[nH]c2ccccc12)NC1CCCCCC1	0	-5
Cc1cccc(Cn2cccc2CN(Cc2ccc([N+](=O)[O-])cc2)C2CC2)c1	19	30

One compound at a time, as listed above.
CC(=O)c1ccc(NC(=O)c2cc3cc(Br)ccc3oc2=O)cc1 is listed with NPYLR7 ag = 6; NPYLR7 ag max-min = -7
COc1ncccc1-c1ccc(O)c(C(C)=O)c1 is listed with NPYLR7 ag = -4; NPYLR7 ag max-min = -9
CC1(C(=O)Nc2cccc3cccnc23)CCN1Cc1csc2ccccc12 (configuration not stated) is listed with NPYLR7 ag = -7; NPYLR7 ag max-min = -7

Other results
SMILES	NPYLR7 ag	NPYLR7 ag max-min
COc1ccccc1/C=C1\SC(=S)N(CC(=O)Nc2nnc(C)s2)C1=O	-7	-9
O=C(Cn1ccc(C(F)(F)F)n1)Nc1ccnn1C1CCCCC1	5	3
O=C(NCc1ccccn1)Nc1ccc(Cl)c(C(F)(F)F)c1	5	-1
CCSC1=NC(C)=C(C(C)=O)C(c2ccc(C)o2)C1C#N (configuration not stated)	0	0
O=C(NCCCN1CCCC1=O)C(C1CCCC1)N1CCN(C(=O)c2ccc(Cl)cc2Cl)CC1 (configuration not stated)	-1	1
CNC(=O)Cn1cc(NC(=O)c2ccc(CN3CC=CC3)cc2)cn1	1	0
COc1cc2c(cc1OC)CN(S(=O)(=O)c1ccc(OC)c(N3CCN(S(=O)(=O)c4cccc(C(F)(F)F)c4)CC3)c1)CC2	0	-1
COc1ccc(NC(=O)Cn2nc(C)c3cnn(-c4ccccc4C)c3c2=O)c(OC)c1	-5	-5
COCCCN(CC(=O)N1CCc2sccc2C1c1ccc(Cl)cc1)C(=O)c1ccccc1Br (configuration not stated)	-16	-9
NC1=NN(c2c(Cl)cc(Cl)cc2Cl)C(=O)C1	-6	-12
CCNC(=O)Cn1c(CO)cnc1SCC(=O)Nc1cccc(C)c1C	6	4
CC(=O)N[C@H]1C[C@@H](c2ccc(-n3cccn3)cc2C)O[C@@H](C(C)(C)C)C1	3	2
CCNC(=O)Cn1c(CO)cnc1SCc1ccccc1Cl	2	1
COCC(C)n1c(C)cc(C=C(C#N)C(=O)O)c1C (configuration not stated)	3	10
Cc1oncc1C(=O)N1CCC(C(=O)Nc2cccc(C(C)C)c2)CC1	-1	-3
O=C(Nc1ccc(N2CCCCC2)cc1)c1cc(-c2cccnc2)on1	10	4
Cc1ccn2cc(-c3ccc(NS(=O)(=O)c4ccc(-c5ccccc5)cc4)cc3)nc2n1	4	1
CNc1ccc(-c2ccc(CC#N)cc2)cn1	1	0
CCOC(=O)N1CCN(C(c2ccccc2F)c2c(O)cc(C)n(CCOC)c2=O)CC1 (configuration not stated)	11	5
Cc1ccc(C2(O)CCN(CC(=O)N3C[C@@H](C)O[C@@H](C)C3)CC2)nc1	-5	-3

Part of the list above, set out differently.
Order of values – NPYLR7 ag | NPYLR7 ag max-min
> Cc1oncc1C(=O)N1CCC(C(=O)Nc2cccc(C(C)C)c2)CC1
    -1 | -3
> O=C(Nc1ccc(N2CCCCC2)cc1)c1cc(-c2cccnc2)on1
    10 | 4

(list continues)
SMILES	NPYLR7 ag	NPYLR7 ag max-min
CCOc1cc2oc(C)c(-c3cnn(-c4ccccc4)c3)c(=O)c2cc1CC	0	-4
CC(C)COC(=NC1CCCc2ccccc21)NC(=O)c1cccc(C(F)(F)F)c1 (configuration not stated)	-2	2
COc1cc2c(cc1C(F)(F)F)N(C(=O)Nc1cc(F)cc(-c3cccnc3)c1)CC2	-5	-12
C=c1occc1=C1NN=C(SCc2nc3ccccc3o2)O1	1	0
C=C(C)Cn1c(=O)c2c(nc3n2CCCN3Cc2ccccc2)n(C)c1=O	6	5
O=C(CN1C(=O)CSc2ccccc21)Nc1ccc(N2CCCC2=O)cc1	10	6
COc1ccc(-n2nnc(C(=O)OCc3ccccc3Cl)c2C)cc1	6	-4
Cc1ccc2occ(CN3[C@@H]4CC[C@H]3CNC(=O)C4)c(=O)c2c1	7	6
Cc1oc2nc[nH]c(=O)c2c1C(=O)OC(C)C(=O)NC1CCCCC1 (configuration not stated)	-1	28
Cc1nc2ccc(NS(=O)(=O)c3ccc(Cl)cc3)cc2o1	7	3
CS(=O)(=O)N(c1ccc([N+](=O)[O-])cc1)S(C)(=O)=O	-5	1
Cc1oc(C(=O)N2CCN(Cc3cccs3)CC2)cc1S(=O)(=O)N1CCCC1	7	4
CCN(C(=O)C(C)S(=O)Cc1ccccc1F)c1ccccc1 (configuration not stated)	9	8
c1ccc(OCCn2cnc(-c3ccccc3)c2-c2ncc[nH]2)cc1	9	-5
O=C(NCC1CCCO1)c1coc(CN(CCN2CCOCC2)Cc2ccc(F)cc2)n1 (configuration not stated)	5	10
CC(=O)Oc1c(-c2ccc(NC(=O)Cc3ccccc3)cc2)c(C(C)C)nn1-c1cccc(C)c1	-5	2
CCC(CC)C(=O)N1CC2=CC(C)(C)COc3ccc(OC)c(c32)C1	-2	-1
COc1ccc(C(=O)Cc2cc(OC)c(OC)cc2C(=O)c2ccccc2F)cc1OC	-7	-9
COc1ccccc1-n1cc(C(C)n2cc3ncccc3c2O)cn1 (configuration not stated)	-1	5
O=C(CC1CCCC1)NCCOc1ccc(-c2ccc(F)cc2)nn1	2	0
CCCCC(=O)N(C)c1c(C)nc2ccc(C(=O)N3CCN(C(C)=O)CC3)cn12	9	-4
CC(C)(C)c1ccc(-c2nnc(NC(=O)c3ccco3)s2)cc1	-3	-11
CCCCc1ccc(-n2c(C)c(C)n3c4c(=O)n(CCN5CCOCC5)c(=O)n(C)c4nc23)cc1	14	7
OC(COCc1ccccc1)CN(Cc1c(-c2ccccc2)noc1N1CCCC1)CC1CCCO1 (configuration not stated)	10	11
Oc1ccccc1-c1nc2ccccn2c1NC1CCCCC1	4	6
C/C=C/C(=O)NCc1cccc(-c2ncc(-c3ccc(F)cc3)[nH]2)c1	4	5
Cc1ccc(CNC(=O)c2nnn(CC(=O)Nc3ccc(C)c(C)c3)c2N)cc1	-9	-14
COCCNC(=O)c1ccc(CSc2nnc(-c3ccncc3)n2-c2ccc(F)cc2)cc1	5	12
COc1ccccc1-c1coc2c(CN3CCCCC3C)c(O)ccc2c1=O (configuration not stated)	-1	-5
C[C@H](N)c1nnc2c(Cl)cc(C(F)(F)F)cn12	-1	5
CCOC(=O)c1[nH]ncc1-c1[nH]cnc1-c1ccccc1	14	7
CCNC(=O)c1csc(Nc2ccc(OC(F)F)cc2)n1	11	1
O=c1oc2ccccc2cc1-c1nnc(-c2cccc(Cl)c2)o1	-1	-5
CCCCCc1ccc(C(=O)NCc2nnc(SCc3ccccc3)n2-c2ccc([N+](=O)[O-])cc2)cc1	-1	13
Cc1noc(C)c1NC(=O)c1ccc(OC(F)(F)F)cc1	-10	-16
Cc1cc2cc(CCNC(=O)C(C)(C)Oc3ccc(Cl)cc3)c(=O)[nH]c2cc1C	1	54
CNC(=S)N1CCn2cccc2C1c1ccc(F)cc1 (configuration not stated)	-5	-5
Cc1ccc(-n2nc3c(=S)[nH]nc(C)c3c2C)cc1	-5	-4
CCCOCC1CCN(c2nccc(NC)n2)C1 (configuration not stated)	7	4
Cn1nnc2c(Nc3ccc(Nc4ccccc4)cc3)ncnc21	9	3
O=[N+]([O-])c1ccc(C2=Nc3ccccc3SC2c2nc3ccccc3[nH]2)cc1 (configuration not stated)	10	7
COc1cccc(CSc2nnc(-c3ccc(F)cc3)o2)c1	0	8
CC1(C)CC(=O)C2=C(C1)OC(=N)C(C#N)C2c1ccccc1 (configuration not stated)	-24	-25
Cc1cc(C)cc(NC(=O)C2CC(O)CN2C(=O)Oc2ccccc2)c1 (configuration not stated)	16	7
Cc1c(C#N)c(NC(=O)CSc2nnnn2C2CC2)n(CC2CCCO2)c1C (configuration not stated)	9	12
Cc1nc(C2(NC(=O)C3CC3c3ccccc3Cl)CCCCC2)no1 (configuration not stated)	0	4
CNS(=O)(=O)c1ccc(F)cc1	-7	-13
CC1=C(C(=O)OC(C)C)C(c2ccc(Cl)cc2)NC(=O)N1C (configuration not stated)	3	-7
Cc1cccc(Oc2cc(N3CCN(c4ccccc4)CC3)ncn2)c1	-5	12
Cc1ccccc1NC(=O)c1cc2cc(Br)ccc2oc1=O	19	5
Continuation:
SMILES	NPYLR7 ag	NPYLR7 ag max-min
Cc1[nH]c(C(=O)N(C)Cc2ccccc2N2CCOCC2)c(C)c1C(=O)OC(C)C	-2	-5
CCCCC(=O)Nc1ccc(C(=O)NC(C)c2ncn[nH]2)cc1 (configuration not stated)	6	-3
C[C@]12C=CC(=O)C=C1CC[C@@H]1[C@@H]2[C@@H](O)C[C@@]2(C)[C@H]1CC[C@]2(O)C(=O)CO	-2&-2	-9&-5
Cc1cc(C2CCCN2CC(=O)NC2CCCC2)on1 (configuration not stated)	8	3
CC(C)CCn1c(=O)c2c(ncn2C(C)C)n(-c2ccc(C(C)C)cc2)c1=O	4	1
CSCCC(=O)N1CCC(CO)(Cc2ccccc2)CC1	5	8
CC(CO)Oc1ccc(Oc2ccccc2)cc1 (configuration not stated)	6	2
Cc1cc(C(=O)N(C)C2CCN(c3ccccn3)CC2)c2ccccc2n1	8	6
C=CCn1c(=O)c2c(nc3n(-c4ccccc4Cl)c(C)c(C)n23)n(C)c1=O	11	10

These rows are one share of the data; rates above refer to the full screens.
